Assay outcomes as filed in PubChem.
Mtb growth – M. tuberculosis H37Rv growth inhibitors, H37Rv strain (AID 1626). inhibition, % at 10 µM, or IC50 in µM where a hit was titrated. M. tuberculosis H37Rv growth inhibition; higher % means a stronger effect. actives 0.95% (n = 220,000);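 active means confirmed in a dose series; inconclusive means inhibition above 80% but not taken into the dose series; inactive means below 80% or under 30% at every dose of the series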;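 further: bacteria incubated seven days before Alamar blue readout; 0% = bacteria only wells and 100% = bacteria with antibiotic wells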
Mtb bLac sens – beta-lactam sensitization of Mtb H37Rv; M. tuberculosis H37Rv growth with meropenem, percent inhibition; hits of this screen are not shown here; inhibition, % at 25 µM; actives 0.27% (n = 330,000); AID 434955;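 active means about 74% or more and at least 40 points above the plate without the antibiotic, then above 30% in a dose series; inconclusive means first-round hits that could not be retested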;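 further: growth measured after seven days incubation then overnight dye step; 0% = bacteria only wells and 100% = bacteria with antibiotic; twin plates without the antibiotic show which effects depend on it; some results filed as inactive read as strong as hits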
Arbovirus inh – blocks arbovirus infection; actives 0.37% (n = 200,000); AID 1251; inhibition, % at 10 µM; arbovirus infection cell-based antiviral screen;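 active means inhibition from about 30%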;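 further: bluetongue infection of BSR cells; cell survival read as ATP light after 72 h; 0% = infected wells without compound and 100% = uninfected wells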
RecA splice inh – inhibitors of M. tuberculosis RecA intein splicing. P9WHJ3. cell-free RecA intein splicing, fluorescence. inhibition, %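 (about 9 µM by stock and volumes)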. actives 0.75% (n = 290,000); in the data active means inhibition above about 30%; inconclusive means no clear call, values can overlap the other calls;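 further: 0% = vehicle wells and 100% = reference inhibitor control wells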
Target sequence (P9WHJ3 whole entry, looked up, canonical isoform): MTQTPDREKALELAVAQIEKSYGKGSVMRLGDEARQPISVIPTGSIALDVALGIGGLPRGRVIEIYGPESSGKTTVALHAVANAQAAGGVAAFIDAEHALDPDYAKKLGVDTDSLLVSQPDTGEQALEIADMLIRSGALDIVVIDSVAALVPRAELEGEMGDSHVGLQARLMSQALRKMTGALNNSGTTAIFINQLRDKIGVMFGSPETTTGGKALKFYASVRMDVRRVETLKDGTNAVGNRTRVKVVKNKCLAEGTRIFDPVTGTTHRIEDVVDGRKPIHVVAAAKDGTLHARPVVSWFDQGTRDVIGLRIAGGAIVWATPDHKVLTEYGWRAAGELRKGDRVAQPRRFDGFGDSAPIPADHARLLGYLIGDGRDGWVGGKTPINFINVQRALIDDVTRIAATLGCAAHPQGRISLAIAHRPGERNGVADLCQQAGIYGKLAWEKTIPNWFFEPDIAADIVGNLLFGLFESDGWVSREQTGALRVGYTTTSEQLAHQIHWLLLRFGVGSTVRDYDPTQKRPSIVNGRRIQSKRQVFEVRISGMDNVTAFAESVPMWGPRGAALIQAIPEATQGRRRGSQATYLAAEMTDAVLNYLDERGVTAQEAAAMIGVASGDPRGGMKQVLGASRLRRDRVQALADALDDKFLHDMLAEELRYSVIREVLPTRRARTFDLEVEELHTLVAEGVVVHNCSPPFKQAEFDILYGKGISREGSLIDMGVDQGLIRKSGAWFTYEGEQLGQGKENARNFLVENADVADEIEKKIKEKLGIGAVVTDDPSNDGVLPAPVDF
YopH PTP inh – YopH (Yersinia) phosphatase inhibition | fluorescence Ex485/Em525 | inhibition, %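 (about 10 µM by stock and volumes)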 | actives 0.16% (n = 140,000) | AID 898;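 active means inhibition of 50% or more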;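 further: controls were vehicle for no effect and minimum signal wells for full effect; inactives centre near -20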
Arbovirus inh repeat – further read-out of Arbovirus inh, marked with its call; inhibition, %; measured here: 10K subset replicate screen; many hits read low in the repeat;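 first of two repeat runs on a subset; 0% = infected and 100% = uninfected wells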
Starred values were filed as active, the others as inactive; i = inactive; u = inconclusive; x = no result given.

SMILES	Mtb growth	Mtb bLac sens	Arbovirus inh	RecA splice inh	YopH PTP inh	others
CC(=O)NCCNC(=O)c1oc2ccccc2c1CSc1ncn[nH]1	-8%	-8	19	-4.5	x
COCCn1nnnc1C(c1ccccc1OC)N1CCN(C(=O)c2ccco2)CC1 (configuration not stated)	x	-10	x	0.3	x
O=C(COC(=O)c1ccc([N+](=O)[O-])s1)Nc1ccccc1	16%	89	-9	-7.1	50*
Cn1cccc2[nH]c(=O)nc1-2	-14%	-5	x	0.2	x
COc1ccc(-n2nc(C(=O)N3CCC(C#N)CC3)c3c4ccccc4n(C)c3c2=O)cc1	1%	3	-8	1.4	-28	Arbovirus inh repeat=-4
O=P(N1CCCCC1)(N1CCCCC1)C(Cl)(Cl)Cl	-2%	7	-1	-3.7	-22
Nc1nnc(CC(=O)N/N=C/c2ccc(-c3ccccc3Cl)o2)s1	2%	5	-3	3.0	-18
CCOC(=O)Cn1nnnc1C(CC)N(Cc1ccccc1)Cc1cc2cc(C)ccc2[nH]c1=O (configuration not stated)	0%	-3	7	-2.4	-14
CCC1CCC2(CC1)SCC(=O)N2c1ccccc1 (configuration not stated)	10%	-2	x	5.7	x
Cc1ccc(C(=O)C[n+]2ccc(-c3nnc4n3CCC4)cc2)cc1	3%	3	5	2.2	-28
O=C(On1c(-c2ccccc2)nc2ccccc2c1=O)c1ccco1	-1%	71	7	0.1	-11
CC(C)n1c(SCC(=O)N2CCN(C(=O)c3ccco3)CC2)nc2c1c(=O)n(C)c(=O)n2C	1%	-2	x	6.5	x
c1ccc(-c2csc3ncnc(N4CCc5ccccc5C4)c23)cc1	4%	5	-18	18	-6
COc1cc(CC(=O)NCCc2ccc(OCc3ccccc3)cc2)c([N+](=O)[O-])cc1OC	1%	13	-16	2.2	-5
Cc1ccc(C2CN=NC23CCc2ccccc2C3=O)cc1 (configuration not stated)	-7%	-1	-16	7.7	-10
Cc1cccc(NC(=O)CC2Nc3cccc4cccc(c34)NC2=O)c1 (configuration not stated)	8%	2	-2	-1.4	-32
CC(=O)Nc1cc(C(=O)OCC(=O)c2ccc(C)cc2)ccc1C	3%	3	-7	4.6	-28
CCOC(=O)c1ccc(NC(=O)C2CCN(S(=O)(=O)CC)CC2)cc1	52%	-13	5	-4.0	-2
CCC(C)[C@H](NC(=O)N1CCN(C)CC1)C(=O)OC (some centres not stated)	-9%	-3	-1	x	-16
COC(=O)C1(S(=O)(=O)C2(C(=O)OC)CCCC2)CCCC1	-2%	x	2	8.3	-26
CC(CCc1ccco1)NC(=O)CCc1nnc2ccc(NCc3ccccc3)nn12 (configuration not stated)	x	-2	x	-0.8	x
Cc1cc(NC(=O)CSc2nc3ccccc3n2CC(C)C)no1	0%	5	-3	0.5	x
COCCCNC(=S)N1CCN(S(=O)(=O)c2ccc(OC)cc2)CC1	2%	-3	2	-3.5	x
O=C(c1ccc2snnc2c1)N1CCSCC1	1%	-11	1	-2.1	-30
CCCCOC(=O)c1sc2nc(N3CCOCC3)c3c(c2c1N)CC(C)(C)OC3	-10%	-2	x	-0.8	x

Entries above with a Cl atom (2):
SMILES	Mtb growth	Mtb bLac sens	Arbovirus inh	RecA splice inh	YopH PTP inh	others
O=P(N1CCCCC1)(N1CCCCC1)C(Cl)(Cl)Cl	-2%	7	-1	-3.7	-22
Nc1nnc(CC(=O)N/N=C/c2ccc(-c3ccccc3Cl)o2)s1	2%	5	-3	3.0	-18

4 entries drawn at random from those above, as already listed:
SMILES	Mtb growth	Mtb bLac sens	Arbovirus inh	RecA splice inh	YopH PTP inh	others
CC(C)n1c(SCC(=O)N2CCN(C(=O)c3ccco3)CC2)nc2c1c(=O)n(C)c(=O)n2C	1%	-2	x	6.5	x
CC(=O)NCCNC(=O)c1oc2ccccc2c1CSc1ncn[nH]1	-8%	-8	19	-4.5	x
Nc1nnc(CC(=O)N/N=C/c2ccc(-c3ccccc3Cl)o2)s1	2%	5	-3	3.0	-18
c1ccc(-c2csc3ncnc(N4CCc5ccccc5C4)c23)cc1	4%	5	-18	18	-6

Additional entries follow:
SMILES	Mtb growth	Mtb bLac sens	Arbovirus inh	RecA splice inh	YopH PTP inh	others
COc1ccc(OC)c(-c2csc(NC(=O)Cc3ccccc3F)n2)c1	x	80	x	9.8	x
O=C(COC(=O)[C@H](Cc1ccccc1)NC(=O)c1ccco1)NCc1ccccc1	-7%	-23	3	1.0	-16
CC[C@@H](C)C(NC(=O)OC(C)(C)C)c1cn([C@@H](Cc2cc3ccccc3[nH]2)C(=O)N2CCN(C(=O)OC(C)(C)C)CC2)nn1 (some centres not stated)	5%	6	-13	3.7	x
CCCC(=O)Nc1cccc(C(=O)Nc2ccccc2OCC)c1	-4%	-3	0	1.1	x
CC(C)Cn1c(=O)c2ccccc2n2c(CCC(=O)NCC3CCCO3)nnc12 (configuration not stated)	x	1	x	-3.3	x
Cc1nnc(SCCC(C)C)[nH]c1=O	-16%	8	3	-0.6	-40	Arbovirus inh repeat=6
Cc1ccccc1CN(C)C(=O)COC(=O)CSc1ccc([N+](=O)[O-])cc1	x	61	x	5.0	x
Cc1cc(NC(=O)CN2CCC(n3nnc4cc(C(F)(F)F)ccc43)CC2)no1	11%	7	4	-0.5	-34
Cc1nc2sc(C(=O)O)c(N)c2c2c1COC(C)(C)C2	-4%	-1	1	-0.1	-22
COC(=O)C1=CN(c2ccc(F)cc2)C=C(C(=O)OC)C1c1cccc([N+](=O)[O-])c1	x	7	x	1.6	x
Cc1c(NC(=O)CSC2=C(C#N)C(c3ccccc3F)CC(=O)N2)c(=O)n(-c2ccccc2)n1C (configuration not stated)	-3%	-9	13	-0.2	-33
Cc1ccc(-c2nnc(N3CCN(C(=O)CN4C(=O)c5ccccc5C4=O)CC3)c3ccccc23)cc1	-9%	-3	x	-1.3	22
CC(C)Cn1c(N)c(C(=O)CSc2nc3ccccc3c(=O)n2CCCN2CCOCC2)c(=O)n(C)c1=O	2%	-2	1	-0.1	x
O=C(O)C1CCN(c2nc(-c3ccccc3)c3cc(Br)ccc3n2)CC1	x	6	x	-79	x
COc1cc2[nH]c(Cl)c([N+](=O)[O-])c2cc1OC	0%	99	x	-166	x
O=C(O)C1C2C=CC(C2)C1C(=O)NCc1ccccn1 (configuration not stated)	-1%	-4	3	-0.9	-12
O=S(=O)(NCC(c1cccs1)N1CCc2ccccc2C1)c1ccccc1 (configuration not stated)	x	3	x	-1.8	x
CC(=O)c1c(O)c(C)c(-c2ccccc2)n(-c2ccccc2)c1=O	2%	-9	6	1.5	-30
CCCc1ccc2oc(C(=O)NCc3nnc(C)o3)c(C)c2c1	x	-4	x	2.4	x
COc1ccc(NC(=O)CN2C(=O)C(C)Oc3ccc(C)cc32)cc1 (configuration not stated)	x	-5	x	-1.4	x
Cc1ccc(C)c(NC(=S)NNC(=O)c2sccc2C)c1	0%	0	-11	-0.5	-5
COC(=O)/C=C1\SC(N)=NC1=O	-7%	-5	x	x	x
CCN(C(=O)c1cccs1)c1nnc(-c2ccncc2)s1	6%	-4	4	x	-9
O=C(O)CCC(=O)NNC(=O)CCCOc1ccc(Cl)cc1Cl	-5%	-7	6	-1.2	-36
COC(=O)CSc1nc2c(c(=O)n(C)c(=O)n2C)n1CCC(C)C	-9%	-8	8	x	x

3 compounds from above, sorted by formula weight, lowest first:
SMILES	Mtb growth	Mtb bLac sens	Arbovirus inh	RecA splice inh	YopH PTP inh	others
CCC1CCC2(CC1)SCC(=O)N2c1ccccc1 (configuration not stated)	10%	-2	x	5.7	x
O=C(O)CCC(=O)NNC(=O)CCCOc1ccc(Cl)cc1Cl	-5%	-7	6	-1.2	-36
O=C(O)C1CCN(c2nc(-c3ccccc3)c3cc(Br)ccc3n2)CC1	x	6	x	-79	x

The main list resumes, starting two compounds before the break.
SMILES	Mtb growth	Mtb bLac sens	Arbovirus inh	RecA splice inh	YopH PTP inh	others
O=C(O)CCC(=O)NNC(=O)CCCOc1ccc(Cl)cc1Cl	-5%	-7	6	-1.2	-36
COC(=O)CSc1nc2c(c(=O)n(C)c(=O)n2C)n1CCC(C)C	-9%	-8	8	x	x
O=C(Nc1ccc(Cl)cc1)NC1(C(=O)NCCCN2CCOCC2)CCCCC1	7%	-3	4	-0.7	-29
CN(CC(=O)Nc1ccccc1C(=O)N1CCCC1)S(=O)(=O)c1ccc(Cl)cc1	2%	2	12	-0.2	-26
S=C(c1ccc(-c2ccccc2)o1)N1CCCCC1	8%	27	8	6.6	x
Cc1ccc(Cn2c(=O)c3c(ncn3C)n(C)c2=O)cc1	x	3	x	0.9	x
O=C(NCC1CCCO1)c1ccc(COc2ccc(F)cc2)o1 (configuration not stated)	-7%	3	0	-1.0	-10
CCCCN(C)C(=O)C1CCC(CNS(=O)(=O)c2ccc3c(c2)CC(C)N3C(=O)C2CC2)CC1 (configuration not stated)	x	-3	x	1.8	x
CC(C(=O)O)n1cnc2sc3c(c2c1=O)CCCC3 (configuration not stated)	-4%	-1	3	-0.7	x
CCOC(=O)C1=C(C)Nc2nc(C)nn2C1c1ccc(OCC)c(OC)c1 (configuration not stated)	x	-3	5	-1.2	x	Arbovirus inh repeat=5
O=C(c1cc(COc2c(F)cccc2F)on1)N1CCC(c2ccccc2Cl)C1 (configuration not stated)	4%	2	0	11	x
CCCOc1ccc(/C=N/Nc2ccccn2)cc1OC	7%	2	-3	-0.4	x
COc1ccc(Cl)cc1S(=O)(=O)N1CCC(C(=O)NCC2CCCO2)CC1 (configuration not stated)	x	-10	x	0.5	x
Cc1cc(N2C(=O)C3CCCN3C2c2ccccc2)no1 (configuration not stated)	-4%	-9	2	1.0	-37
COc1ccc(S(=O)(=O)N(CC(=O)N/N=C/c2cccs2)c2ccc(C)cc2)cc1OC	-8%	-1	3	4.6	-24
OCCCc1nc2n(n1)C(c1ccccc1)C=C(c1ccc(F)cc1)N2 (configuration not stated)	3%	2	6	-141	34
COc1ccc(OC)c(C2=Nn3c(nnc3-c3cccc(OC(C)C)c3)SC2)c1	2%	1	-3	-4.0	-34
O=C(O)c1cccc(S(=O)(=O)N2CCC(Cc3ccccc3)CC2)c1	x	-2	x	2.6	x
Cn1c(=O)c2c(nc(Oc3ccc4ccccc4c3)n2C)n(C)c1=O	1%	21	18	2.9	6
COCCC(=O)Nc1ccc2c(c1)CN(C(=O)c1ccc(CSC)o1)CC2	x	-9	x	0.2	x
Cc1ccc(C(=O)NC(=O)CSc2nnc(C)s2)cc1	x	1	x	1.1	x
CC1=C2C3OC(=O)C(C)C3CC[C@@]2(C)C=CC1=O (some centres not stated)	-7%	1	x	0.0	x
CC(=O)C1=C(C)NC(SCC(N)=O)=C(C#N)C1C (configuration not stated)	3%	0	17	1.5	-12
Cc1ccc(NC(=O)c2cc(=O)n(Cc3ccccc3)c(=O)[nH]2)cc1C	3%	-4	5	-2.6	x
COC(=O)c1[nH]c2ccc(C)cc2c1NS(=O)(=O)c1ccc(F)cc1	2%	-5	6	5.6	-12
COc1cc(/C=C2\C(=O)NN(c3ccc(C)cc3)C2=O)cc([N+](=O)[O-])c1O	u	4	-24	0.8	x
CN1CCC(=NNC(=O)CN(c2ccc(Oc3ccccc3)cc2)S(C)(=O)=O)CC1	1%	-6	-11	1.3	-27
SMILES	Mtb growth	Mtb bLac sens	Arbovirus inh	RecA splice inh	YopH PTP inh	others
CCCCCCCNC(=O)C1(CC2CC(c3cccc(Br)c3)=NO2)CCN(C(=O)c2ccccc2)CC1 (configuration not stated)	x	30	x	-3.0	x
O=C(NC1CCC(O)CC1)c1cc(-c2ccco2)nc2ccccc12 (configuration not stated)	4%	-8	-1	-0.5	x
CCc1nnc(NS(=O)(=O)c2ccc(NC(=O)c3ccco3)cc2)s1	-2%	2	4	3.4	x
Cc1ccc(C2(CCNCc3ccc(N(C)C)cc3)CCOC(C(C)C)C2)cc1 (configuration not stated)	80%	50	-33	3.9	x
CCCN(CCC)C(=O)CC(c1ccccc1)C1CCOC(C)(C)C1 (configuration not stated)	-7%	-2	-2	-2.0	x
CCCCN(CCCC)CC(O)Cn1c2ccccc2c(=O)c2ccccc21 (configuration not stated)	4%	-6	x	i	x
COc1ccc(NC(=O)c2cccn(CC=C(C)C)c2=O)cc1	6%	3	17	0.7	x
COCCNC(=S)N/N=C(\C)c1ccccc1F	2%	80	-7	x	x
CS(=O)(=O)N1CCN(C(=O)Cc2ccccc2Cl)CC1	5%	-6	4	0.8	x
Cc1nn(-c2ccccn2)c2c1-c1nc(N3CCOCC3)ncc1CC2	41%	98	-12	5.6	-1
Cc1cccc(NC(=O)Nc2nnc(-c3ccccc3)o2)c1	-1%	82	-4	-0.3	x
Cc1c(CC(=O)NCC(C)C)c(=O)oc2cc3c(cc12)CCC(C)(C)O3	x	4	x	0.1	x
O=C(CN1CCC(O)(c2ccc3c(c2)OCO3)CC1)N1CCOCC1	2%	8	-6	-1.4	-2
Cc1ccc(C2CC(c3cccc(Br)c3)n3nc(N)nc3N2)cc1 (configuration not stated)	-3%	-1	-8	0.9	-31	Arbovirus inh repeat=-19

Not all compounds are listed, so the mix of outcomes need not match the whole.
